HCMV NEC inh: cytomegalovirus nuclear egress complex inhibition | HTRF UL50-UL53 interaction, normalized percent inhibition | AID 1918969 | inhibition, % (no concentration beside the values) | actives 0.15% (n = 190,000);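 active = both replicates at 50% or more, plus weaker picks with an unusually low signal ratio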;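 also: stock transfer was 100 nL into about 20 µL; 0% = negative control wells and 100% = wells with untagged competitor protein; inactives centre near -12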
GIV-Gai inh: GIV-Galpha-i interaction inhibition. AID 1224905. actives 0.42% (n = 210,000). percent of control (FP), % (test concentration not listed). Galpha-i3/FITC-GIV peptide fluorescence polarization, 90 min; stronger effect = lower value; scaled: aluminum fluoride 0%, vehicle 100%;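 active = replicate mean at 85% of control or lower, very high polarization wells dropped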;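 also: wells of about 15 µL received 100 nL stock; the first replicate is given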
Target sequence (P08753 whole entry, looked up): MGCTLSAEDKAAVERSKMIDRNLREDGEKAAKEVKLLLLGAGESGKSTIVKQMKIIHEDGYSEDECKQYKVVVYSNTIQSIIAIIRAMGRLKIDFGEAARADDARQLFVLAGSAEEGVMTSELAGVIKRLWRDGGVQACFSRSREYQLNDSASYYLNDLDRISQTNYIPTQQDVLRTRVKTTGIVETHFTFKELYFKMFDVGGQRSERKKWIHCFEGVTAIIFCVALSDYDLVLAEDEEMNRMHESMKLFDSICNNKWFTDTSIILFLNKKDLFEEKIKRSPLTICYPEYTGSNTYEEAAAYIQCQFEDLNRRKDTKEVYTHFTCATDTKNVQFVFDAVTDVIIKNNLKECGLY
Sa growth 42C: S. aureus growth inhibition. S. aureus RN4220 growth, OD600, 20 h, 42 °C; stronger effect = lower value. relative growth, % (concentration not given with the values). actives 0.53% (n = 170,000);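 active = growth at 42 °C up to 50% and 20 or more points under that at 30 °C, or under 10% at both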;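 also: 300 nL library stock went into each well; scaled to the means of positive and negative controls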
Sa growth 42C second temp: also measured in Sa growth 42C; calls as there; relative growth, %; measured here: growth at 30 °C;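 optical density after 20 h as mean of two plates; 100% = untreated growth and lower means inhibition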
Starred values were filed as active, the others as inactive; . = no result given; & = joins results of further samples. The order is random; overall some 0.82% were active at least once.

SMILES	HCMV NEC inh	GIV-Gai inh	Sa growth 42C	Sa growth 42C second temp
CC(=O)N1c2ccccc2NC2=C(C(=O)CCC2)C1c1ccccc1 (configuration not stated)	-10	102	100	96
CCC(C)n1nnc2cc(S(=O)(=O)N(C)CC(=O)NCc3ccccn3)ccc21 (configuration not stated)	-10	109	.	.
CCSc1nnc2c(=O)[nH]c(=O)[nH]c2n1	.	103	95	100
CC(C)c1ccccc1NC(=O)COc1ccc(Br)cc1	-31	.	102	87
Cc1ccc(CCC(=O)O)o1	-25	.	111	91
CCCc1nn2c(=O)cc(COC(=O)c3ccc(NC(=O)C4CCCCC4)cc3)nc2s1	.	99	104	90
NC(=O)Cc1nc(-c2ccc(Br)cc2)cs1	2	.	117	103
COc1ccc(CCN2C(=O)/C(=C3/C(=O)N(C)c4ccccc43)SC2=S)cc1OC	-23	103	.	.
CSc1nc(NC(=O)NS(=O)(=O)Cc2ccc(Cl)cc2Cl)nc(N2CCCC2)n1	18	102	111	105
N#CCc1nc(-c2ccccn2)n[nH]1	-10	101	115	85
CC(=O)Nc1cccc(Oc2ccc3c(c2)C(=O)N(c2cccc(Cl)c2)C3=O)c1	.	105	107	86
O=C(CCc1nnc2n(CCc3ccccc3)c(=O)c3ccccc3n12)NCCN1CCOCC1	-10	96	93	67
COc1ccccc1Cc1nc2ccccc2nc1SCC(=O)Nc1c(C)cccc1C	.	99	85	89
COc1ccc(C=NCCN2Cc3ccccc3C2=O)cc1OC	-4	.	98	91
COc1ccccc1N1CCN(C(=O)CN2C(=O)COc3ccc(S(=O)(=O)N4CCCCCC4)cc32)CC1	-10	97	101	86
O=S(=O)(NC1CCCc2ccccc21)c1ccc(-n2cccn2)cc1 (configuration not stated)	-7	108	98	99
Cc1onc(-c2ccccc2)c1-c1ccnn1C(=O)c1ccc(Cl)cc1	-25	106	84	91
Cn1cc(S(=O)(=O)N2CCc3ccccc32)cc1C(=O)N1CCCCCC1	-2	110	122	90
O=C(CC1c2ccccc2Oc2ccccc21)Nc1ccccn1	5	.	120	78
COC(=O)COc1ccc2c(=O)c(-c3ccc(OC)c(OC)c3)c(C(F)(F)F)oc2c1	7	106	.	.
Cc1c(N2C(=O)SC(CC(=O)O)C2=O)c(=O)n(-c2ccccc2)n1C (configuration not stated)	.	96	110	84
COc1ccc(-c2cc(C(=O)Nc3ccc(C)cc3)nn2C2CCS(=O)(=O)C2)cc1 (configuration not stated)	-10	103	.	.
O=C(Cn1nc(-c2ccccc2)c2cc(Cl)ccc21)Nc1ccccc1Br	-11	106	.	.
CCCCNC(=O)N1CCN(c2ccnc3cc(Cl)ccc23)CC1	-15	104	109	98
Clc1ccc(Sc2ccc3nnc(-c4ccccc4)n3n2)cc1	0	100	93	99
CCCn1c(=S)[nH]c2sc(CC)cc2c1=O	-4	.	108	92
CCc1nn(CC(=O)N2CCN(c3cccc(C)c3C)CC2)c(=O)c2cc3occc3n12	7	99	105	97
Cc1ccc(-c2nsc(SCC(=O)c3ccc(Cl)cc3)n2)cc1	.	101	102	90
Cn1c(C(=O)N2CCC(c3ccccc3)C2)cc2c(=O)oc3ccccc3c21 (configuration not stated)	25	107	.	.
COc1ccccc1OC/C(O)=C(\C#N)c1nc2ccccc2[nH]1	14	.	91	93
O=c1ccc(S(=O)(=O)N2CCCC2)cn1Cc1coc(-c2ccccc2)n1	-12	.	90	93
CC1Sc2ccc(C(=O)Nc3ccc(N4CCOCC4)cc3)cc2NC1=O (configuration not stated)	-21	.	83	87
CC(=O)NCCc1nc2ccccc2n1C	5	104	81	89
CCOC(=O)C1(C(=O)OCC)CCC1	102	100	107	106
O=C1c2ccccc2C(=O)N1C1c2ccccc2Oc2ccccc21	-4	.	74	99
Cc1ccc2[nH]c3c(=O)n(CC(=O)N(C)Cc4ccccc4)ncc3c2c1	.	104	93	91
CCc1ccc(NC(=O)c2cc(C)no2)cc1	.	103	101	95
O=C(CC1N=C2c3ccccc3N=C(SCc3cccc(Cl)c3)N2C1=O)NCc1ccc2c(c1)OCO2 (configuration not stated)	.	100	77	71
Cc1ccc(NC(=O)Cn2ncn3c(cc4ccccc43)c2=O)cc1C	-34	102	119	87
COC(=O)c1sc2ccccc2c1S(=O)(=O)N1CCc2ccccc2C1	-8	109	.	.

Individual results from the results shown:
Under GIV-Gai inh, Cc1c(N2C(=O)SC(CC(=O)O)C2=O)c(=O)n(-c2ccccc2)n1C (configuration not stated) reads 96
Under Sa growth 42C, CCc1nn(CC(=O)N2CCN(c3cccc(C)c3C)CC2)c(=O)c2cc3occc3n12 reads 105
Under HCMV NEC inh, COc1ccc(-c2cc(C(=O)Nc3ccc(C)cc3)nn2C2CCS(=O)(=O)C2)cc1 (configuration not stated) reads -10

Continuation:
SMILES	HCMV NEC inh	GIV-Gai inh	Sa growth 42C	Sa growth 42C second temp
CCS(=O)(=O)N1CCCC1c1ccccc1C (configuration not stated)	-12	113	.	.
COc1ccccc1-n1nnnc1SC(C)c1nnc(-c2ccc(F)cc2)o1 (configuration not stated)	-25	.	120	88
CCc1ccc(CN(C)C(=O)C2=CC=CN3CCS(=O)(=O)N=C23)cc1	3	.	95	96
COc1cccc(C(=O)N2c3ncnn3C3(CCCCC3)[C@@H]3CCCC[C@@H]32)c1	-12	96	115	90
Cn1c(O)c(C2=NNC(c3ccncc3)C2)c(=O)[nH]c1=O (configuration not stated)	18	101	.	.
Cc1ccc(CSCc2ccc(C(=O)NCc3cccs3)o2)cc1	2	104	98	55
CC1CCCC(C)N1C(=O)CSc1nc(N)c(-c2ccccc2)c(=O)[nH]1 (configuration not stated)	0	101	91	74
CCOC(=O)c1c(C)oc2nc(C)nc(N(C)Cc3ccccc3)c12	.	113	128	95
CCn1c(=O)cc(OCC(=O)NCCCN2CCN(c3cccc(Cl)c3)CC2)c2ccccc21	-24	98	80	58
Cc1cc2c(cc3n2CC(C)(C(=O)NC2CCCCC2)N(CCCN2CCN(C)CC2)C3=O)o1 (configuration not stated)	-12	99	.	.
CC(c1ccccc1)N1CCn2c(nc3cc(Cl)ccc32)C1 (configuration not stated)	-24	100	.	.
CCOC(=O)C1CCCN(CC(O)COc2ccc(OC)cc2C(C)(C)C)C1 (configuration not stated)	-16	.	100	91
CCCOC(=O)C(C)Sc1n[nH]c(=O)[nH]c1=O (configuration not stated)	-13	95	92	91
O=C1COc2cc(S(=O)(=O)N3CCCC3C(=O)N3CCOCC3)c(Cl)cc2N1 (configuration not stated)	-3	102	.	.
CCN(CC)C(=O)Oc1cc2c(-c3cc4cccc(OC)c4o3)cc(=O)oc2cc1C	-44	105	75	89
CCN1CCN(C(=O)CCCN2C(=O)c3ccccc3Sc3ncccc32)CC1	-8&-10	104&101	103	102
O=C(Nc1cc(C(F)(F)F)cc(C(F)(F)F)c1)C1CC1	-4	106	85	82
NC(=O)C1CCN(C(=O)c2ccc(CS(=O)(=O)c3c(Cl)cccc3Cl)o2)CC1	-2	100	94	81
CC1CCCCN1C(=O)c1cc(-c2ccc(F)cc2)no1 (configuration not stated)	.	103	104	94
O=C1c2ccccc2C(=O)N1CCC(c1ccccc1)c1ccco1 (configuration not stated)	-16	100	114	85

A different layout for some results above.
> Clc1ccc(Sc2ccc3nnc(-c4ccccc4)n3n2)cc1
  HCMV NEC inh: 0; GIV-Gai inh: 100; Sa growth 42C: 93; Sa growth 42C second temp: 99
> CCCn1c(=S)[nH]c2sc(CC)cc2c1=O
  HCMV NEC inh: -4; GIV-Gai inh: .; Sa growth 42C: 108; Sa growth 42C second temp: 92

Ordered by the number under Sa growth 42C second temp (high to low): three of the compounds above
smiles | Sa growth 42C second temp
CCN(CC)C(=O)Oc1cc2c(-c3cc4cccc(OC)c4o3)cc(=O)oc2cc1C | 89
O=C(Nc1cc(C(F)(F)F)cc(C(F)(F)F)c1)C1CC1 | 82
CCn1c(=O)cc(OCC(=O)NCCCN2CCN(c3cccc(Cl)c3)CC2)c2ccccc21 | 58

The list goes on.
SMILES	HCMV NEC inh	GIV-Gai inh	Sa growth 42C	Sa growth 42C second temp
COc1ccc(CCNC(=O)c2ccc(S(=O)(=O)N3CCCC3)cc2)cc1	-5	.	98	96
COc1cccc(OCCSc2nc3ccccc3n2CC(=O)N2CCCCC2)c1	-5	101	104	87
CC1(C)C(=O)N(CC(=O)Nc2ccccc2)c2ccccc21	-3	101	.	.
CCOC(=O)c1cc(-c2ccc(OC)c(S(=O)(=O)N(CC)c3ccccc3)c2)on1	-25	104	.	.
CCOC(=O)c1c[nH]n2c(=O)cc(C)nc12	23	95	80	84
CS(=O)(=O)/C(C#N)=C/c1cccn1-c1ccc(OC(F)(F)F)cc1	-57	98	97	91
COc1ccc(C(=O)Nc2ccc(C(=O)OCc3cc(=O)n4nc(C5CC5)sc4n3)cc2)cc1	.	99	71	73
CC1=NNC(=O)/C1=C/C1CC=CCC1 (configuration not stated)	-10	.	93	72
COc1ccc(OC)c(-n2c(SCC(=O)NCC3CCCO3)nnc2-c2c[nH]c3ccccc23)c1 (configuration not stated)	-4	98	99	81
CC(C)OC(=O)Cn1c2ccccc2c2nc3ccccc3nc21	-12	103&101	118	100
COc1ccc(NC(=O)C2CCN(C(=O)c3cccn3-c3cccnc3)CC2)cc1OC	-22	103	.	.
O=C(Nc1cccnc1)N(c1ccccc1)c1ccccc1	4	105	103	101
O=C1c2cccnc2C(=O)N1CCc1ccc(S(=O)(=O)N2CCCCC2)cc1	-69	102	102	90
CSc1ccc(CCNC(=O)CCc2c(C)nc3c(-c4ccccc4)c(C)nn3c2C)cc1	-28	103	118	80
CN(C(=O)c1cccc(S(=O)(=O)N(C)C)c1)C1CCCCC1	6	.	99	103
O=[N+]([O-])c1cccc(-c2nc(-c3ccccc3)nc(-c3ccccc3)n2)c1	-9	103	.	.
CCOc1ccc(OCC)c(NC(=O)C2CCCN(S(=O)(=O)c3cc(Br)cc4c3N(C(=O)CC)CC4)C2)c1 (configuration not stated)	-15	107	94	92
O=C(O)CCC(=O)N1CCN(c2ccccn2)CC1	0	98	105	87
COc1ccc(C2Nc3ccccc3C(=O)N2Cc2ccco2)cc1COc1ccc([N+](=O)[O-])c(C)c1 (configuration not stated)	-33	100	.	.
Cn1c(Cc2ccccc2)nnc1SC1CCOC1=O (configuration not stated)	-8	.	100	88
COc1ccc(N(C(=O)C(C)C)S(=O)(=O)c2cccc3cccnc23)cc1	.	97	96	89
Clc1ccccc1-c1nc2c3ccccc3ncn2n1	-8	103	.	.
O=C1c2ccccc2C(=O)N1Cc1cc(Cl)c2cccnc2c1O	-5	102	132	90
Cn1c(CS(=O)(=O)c2ccccc2)c(C#N)c2ccccc21	8	.	97	89
Cc1ccc(-c2nc3ncccc3o2)cc1NC(=S)NC(=O)c1oc2ccccc2c1C	-6	98	115	93
O=C(CN1C(=O)COc2ccc(S(=O)(=O)N3CCOCC3)cc21)N1CCN(c2ccccc2)CC1	7	110	96	90
CN(C)c1nc(-c2ccccc2)nnc1-c1ccccc1	-20	100	.	.
O=C(NC1=NCCS1)c1cccs1	.	101	112	84
Cc1ccc(S(=O)(=O)N(CCO)c2cc3c(s2)CCCC3)cc1	-10	.	92	107
O=C(NNc1ccnc2cc(Cl)ccc12)C1CCCCC1	-28	.	72	92
CC1=CC(=C2C(=O)c3ccccc3C2=O)C=C(C)N1CCO	-52	91	91	83
O=C(CN1CCC(NC(=O)c2ccccc2)CC1)NCc1ccccc1F	3	102	90	86
COc1ccc(OC)c(C(=O)c2coc3ccc(O)cc23)c1	-6	.	112	85
CNC(=S)N(Cc1cc2ccc(OC)cc2[nH]c1=O)C1CCCC1	-10	99	98	84
O=C(c1cc(-c2ccccc2)on1)N1CCCc2ccccc21	-9	100	93	73
COc1ccccc1CNC(=O)CCNS(=O)(=O)c1ccc2c(c1)CCCC(=O)N2	.	104	112	94
CCc1ccc(CN(C)C(=O)c2ccc3c(c2)OCCO3)cc1	-21	.	100	80
Cc1nc(-c2ccccn2)nc(NCCNc2ccc(C(F)(F)F)cn2)c1Cl	-7	97	90	71

Structures listed so far that have a cyano group (4):
SMILES	HCMV NEC inh	GIV-Gai inh	Sa growth 42C	Sa growth 42C second temp
N#CCc1nc(-c2ccccn2)n[nH]1	-10	101	115	85
COc1ccccc1OC/C(O)=C(\C#N)c1nc2ccccc2[nH]1	14	.	91	93
CS(=O)(=O)/C(C#N)=C/c1cccn1-c1ccc(OC(F)(F)F)cc1	-57	98	97	91
Cn1c(CS(=O)(=O)c2ccccc2)c(C#N)c2ccccc21	8	.	97	89
